High-throughput results deposited in PubChem by National Center for Advancing Translational Sciences (NCATS).
AmpC nodet inh = inhibitors of E. coli AmpC beta-lactamase without detergent; P00811; AmpC nitrocefin hydrolysis, absorbance 480 nm, no detergent; potencies from a single point are estimates; Potency, µM (top dose mostly 28.7 µM), for inactives: at the top dose activity change, negative = inhibition; 1.8% of 71,000 active; AID 585; active = falling curve, for most hits resting on a single point; inconclusive = weak or doubtful change; inactive = flat or rising curve; also: % of control where 0% means no effect; about half of the hits show no inhibition at the top dose; a quarter of the inactives give rising signals
Target sequence (P00811 whole entry, looked up): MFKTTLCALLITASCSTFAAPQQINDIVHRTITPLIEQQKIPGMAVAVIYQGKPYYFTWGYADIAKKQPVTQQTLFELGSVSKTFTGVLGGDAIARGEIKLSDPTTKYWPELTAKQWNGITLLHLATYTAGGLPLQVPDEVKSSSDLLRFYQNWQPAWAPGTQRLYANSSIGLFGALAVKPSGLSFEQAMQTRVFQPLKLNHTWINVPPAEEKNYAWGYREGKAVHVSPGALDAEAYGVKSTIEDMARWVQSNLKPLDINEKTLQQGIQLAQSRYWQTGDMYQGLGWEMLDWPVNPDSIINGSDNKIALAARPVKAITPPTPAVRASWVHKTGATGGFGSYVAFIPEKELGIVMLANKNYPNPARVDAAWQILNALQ
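AmpC in 20 mM phosphate buffer pH 7.0 was preincubated 15 min at room temperature with compounds. Nitrocefin (800 uM stock) was then added and hydrolysis followed at 480 nm every 20 s for 4 min.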
Numbers without * were called inactive; ? = inconclusive; [ ] = remark or other dose. Potency is read from the fitted curve at half-maximal effect.

SMILES	AmpC nodet inh
COc1ccc(NC(=O)N2CCCC3(CCN(C(=O)c4ccc(OC)cc4)CC3)C2)cc1	53.3%
O=C1CCCC2=C1C(c1ccsc1)CC(=O)N2c1ccccc1 (stereo not drawn)	2.1%
COc1ccccc1NC(=O)c1sc2nc(-c3ccco3)ccc2c1N	-8.8%
CC(C)COC(=O)C1C2C=CC3(CN(C4CCCC4)C(=O)C13)O2 (stereo not drawn)	17.1%
CCCn1c(=NC(C)=O)c(C(=O)OCC)cc2c(=O)n3ccccc3nc21	18.9%
Cn1c(CCN2CCCCC2)nc2cc(NC(=O)NC3CCCCC3)ccc21	18.4%
CCN(C(=O)CN1CCCc2ccccc21)c1c(N)n(Cc2ccccc2)c(=O)[nH]c1=O	-3.7%
COc1ccc(OC)c(S(=O)(=O)Nc2ccc(OCC(=O)O)cc2)c1	9.3%
O=C1CCCc2c1[nH]c1c(Br)cccc21	5.8%
N=c1c(C(=O)NCc2ccccc2)cc2c(=O)n3ccccc3nc2n1CCCN1CCOCC1	36.0%
C=CCn1cc(Cl)c(=O)n(CC=C)c1=O	-5.5%
Cc1ccc(S(=O)(=O)N2CCN(S(=O)(=O)N(C)C)CC2)cc1	11.3%
N#Cc1nc(-c2ccco2)oc1NCc1ccco1	9.4%
COCC(=O)N1CCC2(CCN(Cc3ccc(C#N)cc3)CC2)CC1	4.0%
CC(C)Oc1ccc(N2CC(C(=O)Nc3ccc4c(c3)OCO4)CC2=O)cc1 (stereo not drawn)	9.4%
O=C(CSCc1nc2ccccc2[nH]1)N1CCN(c2cccc(Cl)c2)CC1	55.9%
Oc1ccccc1CNc1nc2ccccc2n1CCN1CCCCC1	11.3%
CCC(=O)Nc1cc(C)c(NC(=O)CCc2ccccc2)cn1	7.4%
Cc1cc(NC(=O)CS(=O)(=O)c2cn(Cc3cccc(F)c3)c3ccccc23)no1	-5.1%
CCC(SCC(=O)OC)C(=O)Nc1nnc(C(C)C)s1 (stereo not drawn)	-1.8%
CCOC(=O)c1cnn(-c2cc(C)c3cc(C)cc(C)c3n2)c1N	0.8%
O=C(CSc1nc2ccccc2o1)N1CCN(C(=O)c2ccco2)CC1	27.4%
O=C1CN(CC(=O)N2CCOCC2)c2ccccc2O1	1.7%
CCC(=O)Nc1ccc2c(c1)ncn2-c1ccccc1OC	5.8%
CC(=O)N1CCN(c2ccc(Oc3nnnn3-c3ccccc3)cc2)CC1	64.8%
COc1ccc2[nH]cc(CCNc3ncncc3-c3cccnc3)c2c1	10.0%
Cc1csc(NC(=O)CSc2nnc3ncccn23)n1	-3.2%
COc1ccc(-n2c(SCC(=O)c3c(N)n(C)c(=O)n(C)c3=O)nc3ccccc32)cc1	10.4%
CCCc1ccc(-c2ccc(C(=O)O)cc2)nc1	-3.7%
Cc1onc(-c2ccccc2)c1C(=O)Nc1nc2c(s1)CCCC2	10.5%
COc1ccccc1N(C(=O)c1ccco1)C(C(=O)NC1CCCC1)c1cccnc1 (stereo not drawn)	19.9%
O=C(c1cccc(C(=O)N2CCN(c3ccccc3F)CC2)n1)N1CCN(c2ccccc2F)CC1	139.3%
Cc1ccccc1CS(=O)(=O)c1nnc([C@H](CC(C)C)NC(=O)OC(C)(C)C)o1	10µM*
C=C(C)C(N)=O	-13.4%
Cc1cc(C)c2c(n1)sc1c(N3CCOCC3)ncnc12	-7.4%
CCCCn1c(=O)c2c(c3ccccc31)OCC(=O)N2	1.8%
CCOC(=O)N1CCN(CC(=O)Nc2ccc(C)cc2)CC1	24.9%
Cc1ccc(N)cc1O	5.8%
CCOC(=O)c1cccc(NC(=O)C2CCN(S(=O)(=O)c3cccs3)CC2)c1	4.2%
CCOc1cccc(C(=O)Nc2ccc(N(CC)CC)cc2)c1	-4.4%

Reprinted at random: 5 entries already listed
SMILES	AmpC nodet inh
CC(=O)N1CCN(c2ccc(Oc3nnnn3-c3ccccc3)cc2)CC1	64.8%
Cn1c(CCN2CCCCC2)nc2cc(NC(=O)NC3CCCCC3)ccc21	18.4%
CCOC(=O)c1cccc(NC(=O)C2CCN(S(=O)(=O)c3cccs3)CC2)c1	4.2%
CCOc1cccc(C(=O)Nc2ccc(N(CC)CC)cc2)c1	-4.4%
O=C1CCCc2c1[nH]c1c(Br)cccc21	5.8%

Next section:
SMILES	AmpC nodet inh
COc1ccc(O)c(-c2cc(-c3cccc(Br)c3)n[nH]2)c1	-20.4%
CCN(c1c(C)n(C)n(-c2ccccc2)c1=O)S(C)(=O)=O	-2.7%
CCOC(=O)NC(=O)CSc1nc(C)cc(C)c1C#N	11.6%
CC(NC(=O)CC12CC3CC(CC(C3)C1)C2)C(=O)O (stereo not drawn)	-7.3%
CCOc1cccc(C(=O)Nc2ccccc2OC(F)F)c1	-1.8%
CCC(=O)c1ccccc1OCCN1C(=O)NC(C)(C)C1=O	16.1%
CCC/C=C(\CCC)C(NC(=O)C(C)(C)C)c1ccc(C(=O)OC)cc1 (stereo not drawn)	88.7%
CCOC(=O)N1CCN(Cc2cccs2)CC1	9.6%
CSc1nc2c(c(=O)n1C)SC(C)C2 (stereo not drawn)	1.1%
CC(C(=O)Nc1nccs1)N1C(=O)C2CC=CCC2C1=O (stereo not drawn)	2.8%
CC(C)(C)NC(=O)COc1ccc(CNn2nnnc2N)cc1	1.2%
c1ccc(-c2csc3ncnc(NCCN4CCOCC4)c23)cc1	62.1%
C=CCN1C[C@H](C)N([C@@H](c2ccccc2)c2ccc(C(=O)N(CC)CC)cc2)C[C@H]1C	16.1%
COc1ccc(S(=O)(=O)N(C)CC(=O)NCCC2=CCCCC2)cc1	59.1%
Cc1cc(C)n(-c2nc3ccccc3c(=O)n2OCC(=O)OCc2ccccc2)n1	17.8%
Cc1nn(C)cc1C(N)=O	-5.5%
Cc1ccc(C)c2[nH]c(=O)c(CN(Cc3ccco3)C(=O)Nc3ccccc3)cc12	3.1%
CCCCOC(C)=O	-3.4%
O=C(NCCC1=CCCCC1)C1COc2ccccc2O1 (stereo not drawn)	8.5%
CCOC(=O)N1CCN(C(=O)CN(c2cc(C(F)(F)F)ccc2Cl)S(C)(=O)=O)CC1	69.4%
Clc1ccc(C(Cl)(Cl)Cl)c(Cl)c1	-16.3%
O=C(Cn1nc(-c2ccccc2)c2ccccc2c1=O)Nc1ccc2c(c1)nc1n2CCOC1	104.3%
O=C(Nc1ccc2c(c1)OCO2)c1cccc2c1C(=O)N(C1CCCCC1)C2	18.7%
CC1CCN(CCCNC(=O)c2cn(C)c3ccc(S(=O)(=O)N4CCCC4)cc3c2=O)CC1	6.8%
CCN(CC)S(=O)(=O)c1ccc(C(=O)NCc2n[nH]c(=S)n2-c2ccccc2OC)cc1	6.6%
Clc1ccc(Cn2ncc3c(N4CCOCC4)ncnc32)cc1	63.6%
CCOC(=O)CNC(=O)CSc1nc2cccnc2n1C1CCCCC1	43.7%
NC(=O)Cn1cnc(-c2ccccc2)c1	-10.6%
COc1ccc(CNC(=O)CSc2nnc(C)s2)cc1	5.3%
COc1cc(C(=O)N2CCC(NC(=O)C(Cc3ccccc3C)NC(C)=O)CC2)cc(OC)c1OC (stereo not drawn)	86.5%
COc1ccc(C)cc1-n1nnnc1SC/C(O)=C(\C#N)c1nc2ccccc2[nH]1	-13.5%
Fc1ccccc1CSc1nc2ncccc2[nH]1	-8.9%
COc1ccc(-n2c(=O)c(-c3cc(F)cc(F)c3)nc3cncnc32)cc1	-3.7%
CC(Sc1nnnn1-c1ccccc1)C(=O)Nc1ccc(Cl)cn1 (stereo not drawn)	-9.2%
CC(=O)c1cc(C)ccc1OC(=O)c1ccco1	-3.8%
Cc1cccc(N2CCN(C(=O)CCCOc3ccccc3)CC2)c1C	76.4%
COc1ccc(OC)c(CN2CCN(c3ccccc3OC)CC2)c1	9.7%
CC(C)Nc1ncnc2c1cnn2-c1ccc(Cl)cc1	30.6%
O=c1[nH]n(-c2ccccc2)c(=O)c2ccccc12	-6.4%
COc1ccc(C2C(C(=O)Nc3ccccc3OC)=C(C)Nc3ncnn32)cc1 (stereo not drawn)	27.5%

Reformatted with bars between the fields: six of the compounds above
SMILES | AmpC nodet inh
O=C(Cn1nc(-c2ccccc2)c2ccccc2c1=O)Nc1ccc2c(c1)nc1n2CCOC1 | 104.3%
O=C(Nc1ccc2c(c1)OCO2)c1cccc2c1C(=O)N(C1CCCCC1)C2 | 18.7%
CC1CCN(CCCNC(=O)c2cn(C)c3ccc(S(=O)(=O)N4CCCC4)cc3c2=O)CC1 | 6.8%
CCN(CC)S(=O)(=O)c1ccc(C(=O)NCc2n[nH]c(=S)n2-c2ccccc2OC)cc1 | 6.6%
Clc1ccc(Cn2ncc3c(N4CCOCC4)ncnc32)cc1 | 63.6%
CCOC(=O)CNC(=O)CSc1nc2cccnc2n1C1CCCCC1 | 43.7%

The results go on.
SMILES	AmpC nodet inh
CCc1ccccc1NC(=O)CN(c1cccc(OC)c1)S(C)(=O)=O	0.4%
CCOC(=O)N1CCN(C(=O)c2ccccc2CCc2ccccc2)CC1	84.1%
C/C(=C\C(=O)Nc1cc(C)on1)c1ccccc1	-7.9%
Cc1cccc2cc(CN(Cc3ccc(F)cc3)C(=O)N(C)C)c3nnnn3c12	98.7%
Cn1cc(C(=O)c2ccccc2)cc1-c1nc2ccccc2n1C	27.2%
O=C(O)c1ccc2c(c1)C(=O)N(C(Cc1ccccc1)C(=O)O)C2=O (stereo not drawn)	5.4%
Cc1cccc(C)c1NC1=NCCCS1	-8.5%
COc1ccc(NC(=O)CN2C(=O)C(C)Oc3ccccc32)cc1 (stereo not drawn)	?
N#CCCN(CCC#N)c1nncs1	-4.7%
CN(c1ccc(C(=O)O)cc1)S(=O)(=O)c1ccccc1	-1.9%
Cc1cccc(NC(=O)CSCc2c(C)noc2C)c1C	2.3%
O=C(Nc1ccc(F)cc1)N(Cc1ccco1)Cc1cc2cc3c(cc2[nH]c1=O)OCO3	-6.7%
CC(=O)Oc1ccc2c(C)c(CC(C)O)c(=O)oc2c1 (stereo not drawn)	0.7%
O=C(CN1C(=O)C2CC=CCC2C1=O)Nc1ccc(S(=O)(=O)NC2=NCCCCC2)cc1 (stereo not drawn)	1.0%
CCc1ccc(C2CC(c3cccc(OC)c3)n3nc(N)nc3N2)cc1 (stereo not drawn)	70.3%
C=CCNC(=O)C12CC3CC(C1)CC(C(=O)NCC=C)(C3)C2	-12.6%
CCOC(=O)C1CCN(S(=O)(=O)c2cccc(-c3cn4ccccc4n3)c2)CC1	71.7%
Cc1cccc(C)c1OCc1nnc(SCC(=O)Nc2nccs2)n1-c1ccccc1	-15.8%
CC(=O)CCC(C)=O	-6.3%
O=C(Nc1ccc(S(=O)(=O)N2CCCC2)cc1Cl)C1=COCCO1	1.2%
COc1ccc(N(CC(=O)N2CCC(C)CC2)S(=O)(=O)c2c(C)nn(C)c2C)cc1	138.0%
CCOC(=O)Cc1nnc(NC(=O)c2cccc(OCC)c2)s1	-2.3%
O=C(NCc1ccco1)C1CCN(C(=O)c2cc3sccc3n2Cc2ccc(Cl)cc2)CC1	69.6%
CNC(=O)CSc1nc2c(c(=O)n(C)c(=O)n2C)n1Cc1ccc(C)cc1	55.5%
CC(=O)N1CCN(C(C)=O)C1c1ccccc1	14.1%
O=C(NCC1CCCO1)C1CCCN(Cc2cnn(-c3ccccc3)c2-n2cccc2)C1 (stereo not drawn)	61.4%
COc1ccc(NC(=O)CSc2nnc(-c3ccccc3)n2Cc2ccco2)c(OC)c1	82.6%
CCCn1c(=NC(C)=O)c(C#N)cc2c(=O)n3cccc(C)c3nc21	21.4%
COC(=O)c1ccc(COC(=O)c2ccc(N(C)C)cc2)cc1	15.7%
Cc1noc(C)c1S(=O)(=O)N1CCC(C(=O)N2CCN(C3CCCC3)CC2)CC1	14.5%
CCCC(C)C1C(C#N)=C(N)Oc2c1c(=O)oc1ccccc21 (stereo not drawn)	-14.4%
COc1ccc(CC(=O)Nc2c3c(nn2-c2ccccc2C)CS(=O)C3)cc1 (stereo not drawn)	4.1%
CC(=O)C1=C(C)NC(SCC(N)=O)=C(C#N)C1c1cccnc1 (stereo not drawn)	-4.3%
CS(=O)(=O)N1CCc2cc(S(=O)(=O)Nc3ccc4oc5c(c4c3)CCCC5)ccc21	9.6%
COc1cccc(NC(=O)CN2CCN(c3ccccc3F)CC2)c1	22.6%
O=C(CSc1nnnn1C1CCCC1)Nc1ccc2c(c1)OCO2	2.4%
CN(CC(=O)NCCN1CCCCCC1)S(=O)(=O)c1cccc2nsnc12	23.3%
COc1cccc(C(=O)Nc2ccc3nc(N4CCOCC4)cc(C)c3c2)c1	137.9%
COCCCN1C(=O)C(=O)/C(=C(/O)c2ccc(OC)cc2C)C1c1cccnc1 (stereo not drawn)	-5.2%
Cc1oc(/N=C/c2ccc(Cl)cc2)c(C#N)c1C	-15.8%
Cc1cc(Br)ccc1SCC(=O)OCC(=O)N1CCN(C(=O)c2ccco2)CC1	117.9%
N[C@@H](Cc1cccc([N+](=O)[O-])c1)C(=O)O	6.5%[5.75 µM]
CCn1c(SCC(=O)O)nnc1-c1cc2c(C)nn(-c3ccccc3)c2s1	9.8%
Cc1c(N=CN2CCOCC2)c(=O)n(C)c(=O)n1C	1.4%
COCc1[nH]nc2c1C1(CCC3(CC1)OCCO3)C(C#N)=C(N)O2	-1.7%
CCOC(=O)CC(=O)Nc1cc(Cl)ccc1O	4.1%
Cc1nn(Cc2ccccc2Cl)c2sc(C(=O)NCCCn3ccnc3)cc12	94.3%
O=C(Nc1ccc(F)cc1)NC1(C(=O)NCc2ccco2)CCCCC1	-11.9%
CCCC(C)NS(=O)(=O)c1ccccc1 (stereo not drawn)	-3.8%
COc1cc(OC)cc(-n2nnnc2SCC(=O)N2CCCC2)c1	23.3%
Cc1cccc(N2CCN(C(=O)c3cn(C)c(=O)c4c3c3ccccc3n4C)CC2)c1C	133.9%
COC(=O)c1cc(NC2c3ccccc3C(=O)N2CCN2CCOCC2)cc(C(=O)OC)c1 (stereo not drawn)	106.7%
CC(NC(=O)CSc1nc2ccccc2c(=O)[nH]1)c1ccccc1 (stereo not drawn)	-23.2%
CCOC(=O)c1oc2nc3c(cc2c1N)COC(C)(C)C3	-7.4%

An excerpt (hit frequency here may not be typical).
